# AID504770 = growth inhibition of E. coli YBA685, primary screen, V. cholerae RctB inhibitors; AID 504770, 2011; z-score (test concentration not listed); E. coli YBA685 rctB-dependent plasmid, OD600 growth, 3 h; hits give low values; hit rate 0.27% among 130,000;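 active = z-score under -2 on both plates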;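 also: wells of about 30 µL received 100 nL stock; score is relative to mean and SD of the test wells; the first replicate is given; strong numbers were not always called active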
# Ba CapD inh = Bacillus anthracis CapD inhibitors, primary screen, biochemical, fluorescence intensity | purified CapD enzyme, fluorescence intensity read-out; hits give low values; some hits fall short of the stated cut | z-score (no concentration beside the values) | hit rate 0.23% among 140,000 | AID 492967, 2010;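 active = z-score under -4 in either of two replicates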;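 also: stock transfer was 100 nL into about 40 µL; score is relative to mean and spread of the plate; one replicate is shown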
# * hit, by the source's call; i = inactive; . = not tested or not shown; & = joins results of further samples.
SMILES,AID504770,Ba CapD inh
O=C(CSc1nnc(COc2ccccc2Cl)o1)NC12CC3CC(CC(C3)C1)C2,-0.25,.
Cc1ccc(C(=O)N2CCCC2)cc1NC1=NC2CS(=O)(=O)CC2S1 (centres undefined),0.25,-0.05
CNc1ccccc1C(C)(C)c1cc(-c2ccc(Cl)cc2)no1,-0.8,.
Cc1cc(NC(=O)CN2CCc3sccc3C2c2cccs2)no1 (centres undefined),0.55,.
COc1ccc(C2Nc3ccccc3C(=O)N2c2ccccc2)cc1Cn1nc(C)c([N+](=O)[O-])c1C (centres undefined),.,2.95
Cc1ccc(S(=O)(=O)c2cn[nH]c2-c2ccc(Cl)cc2)cc1,-0.85,0.005
CCc1cc2c(=O)c(-c3nc4ccccc4n3C)c(C(F)(F)F)oc2cc1O,0.05,i
COc1ccc(C2CC(C(F)(F)F)n3nc(C(=O)N4CCN(c5ccc(F)cc5)CC4)c(Cl)c3N2)cc1 (centres undefined),.,-0.53
CCOc1ccc(N=C2SC(C(=O)O)CC(=O)N2Cc2ccc3c(c2)OCO3)cc1 (centres undefined),.,-0.275
COc1cccc(NC(=S)N2CCC3(CC2)CC(=O)c2ccccc2O3)c1,-0.3,0.705
COc1cc(CNC2CCCCC2C)cc(OC)c1 (centres undefined),-0.4,0.005
CCOC(=O)C(Cc1ccc(Cl)cc1)NC(=O)OCCc1ccc(Br)cc1 (centres undefined),.,-0.965
O=C1C(c2ccccc2)C(c2ccccc2)NC(c2ccccc2)C1c1ccccc1 (centres undefined),.,-0.12
CC12c3ccccc3C(C)(c3ccccc31)C1C(=O)N(c3cccc([N+](=O)[O-])c3)C(=O)C12 (centres undefined),.,-0.565
NCC1CCN(Cc2ccccc2Cl)CC1,2.4,-1.23
Cn1nc(-c2ccccn2)sc1=S,1.5,-2.62
CC(C)CCn1c(=O)c2[nH]c(=S)[nH]c2n(CC(C)C)c1=O,-0.35&0,2.54
CC(=O)N(CCC(c1ccc(C)cc1)c1ccco1)Cc1ccccc1 (centres undefined),2.05,0.07
NC(=O)C1CCN(C(=O)C2CCN(S(=O)(=O)c3ccc(-n4cnnn4)cc3)CC2)CC1,1.55,.
CN(C)S(=O)(=O)c1cc(Br)c(Br)s1,.,0.245
O=C(O)c1ccccc1SCC(=O)C12CC3CC(CC(C3)C1)C2,0.35,0.09
CSc1nnc(C2CCCN(CC(=O)N3CCCC3)C2)n1C (centres undefined),-0.45,.
CC(OC(=O)c1ccc2c(c1)C(=O)N(Cc1ccco1)C2=O)C(=O)c1ccccc1 (centres undefined),-0.45,.
Cc1cc(C)n(-c2nc3cc(C(=O)c4ccccc4)ccc3nc2Cl)n1,1.65,-0.31
Cc1noc(NS(=O)(=O)c2ccc(NC(=O)CCN3C(=O)c4ccccc4C3=O)cc2)c1C,.,0.295
Cn1ncc2c(NN3C(=O)CCC3=O)ncnc21,2.45,1.15
Cc1ccc(S(=O)(=O)N2CCCC2C(=O)Nc2nccs2)cc1 (centres undefined),2.5,.
NC1C[C@H]1c1ccccc1 (some centres undefined),0.65,-0.03
COc1ccc(N2C(=O)/C(=C/c3ccc(OC)c(Br)c3)C=C2c2ccccc2)cc1,.,-1.7
CC(C)N1CCc2c(sc(NC(=O)CCOc3ccccc3)c2C(N)=O)C1,-0.3,1.5
CC1(C)CC(=O)C2=C(C1)N1C(=C(C#N)C2c2ccccc2F)N=C(N)c2ccccc21 (centres undefined),-0.2,-0.5
O=C1c2ccccc2C2N1CCCN2S(=O)(=O)c1cccc(C(F)(F)F)c1 (centres undefined),-1.6,0.865
Cc1ccc(SC(C)C(=O)NN=C(c2ccccc2)c2ccccc2)cc1 (centres undefined),.,0
CN(C)c1ccc(C2C=C(Nc3ccc(F)cc3)C(=O)N2c2ccc(F)cc2)cc1 (centres undefined),.,-1.7
O=C(CCCSc1nc(-c2ccco2)cc(C(F)(F)F)n1)NC1CCCC1,1,0.1
CC(C(=O)O)n1c2ccccc2c2cn[nH]c(=O)c21 (centres undefined),-1,23.9

# No new results follow: 21 of the compounds above.
SMILES,AID504770,Ba CapD inh
O=C1C(c2ccccc2)C(c2ccccc2)NC(c2ccccc2)C1c1ccccc1 (centres undefined),.,-0.12
CC12c3ccccc3C(C)(c3ccccc31)C1C(=O)N(c3cccc([N+](=O)[O-])c3)C(=O)C12 (centres undefined),.,-0.565
NCC1CCN(Cc2ccccc2Cl)CC1,2.4,-1.23
Cn1nc(-c2ccccn2)sc1=S,1.5,-2.62
CC(C)CCn1c(=O)c2[nH]c(=S)[nH]c2n(CC(C)C)c1=O,-0.35&0,2.54
CC(=O)N(CCC(c1ccc(C)cc1)c1ccco1)Cc1ccccc1 (centres undefined),2.05,0.07
NC(=O)C1CCN(C(=O)C2CCN(S(=O)(=O)c3ccc(-n4cnnn4)cc3)CC2)CC1,1.55,.
CN(C)S(=O)(=O)c1cc(Br)c(Br)s1,.,0.245
O=C(O)c1ccccc1SCC(=O)C12CC3CC(CC(C3)C1)C2,0.35,0.09
CSc1nnc(C2CCCN(CC(=O)N3CCCC3)C2)n1C (centres undefined),-0.45,.
CC(OC(=O)c1ccc2c(c1)C(=O)N(Cc1ccco1)C2=O)C(=O)c1ccccc1 (centres undefined),-0.45,.
Cc1cc(C)n(-c2nc3cc(C(=O)c4ccccc4)ccc3nc2Cl)n1,1.65,-0.31
Cc1noc(NS(=O)(=O)c2ccc(NC(=O)CCN3C(=O)c4ccccc4C3=O)cc2)c1C,.,0.295
Cn1ncc2c(NN3C(=O)CCC3=O)ncnc21,2.45,1.15
Cc1ccc(S(=O)(=O)N2CCCC2C(=O)Nc2nccs2)cc1 (centres undefined),2.5,.
NC1C[C@H]1c1ccccc1 (some centres undefined),0.65,-0.03
COc1ccc(N2C(=O)/C(=C/c3ccc(OC)c(Br)c3)C=C2c2ccccc2)cc1,.,-1.7
CC(C)N1CCc2c(sc(NC(=O)CCOc3ccccc3)c2C(N)=O)C1,-0.3,1.5
CC1(C)CC(=O)C2=C(C1)N1C(=C(C#N)C2c2ccccc2F)N=C(N)c2ccccc21 (centres undefined),-0.2,-0.5
O=C1c2ccccc2C2N1CCCN2S(=O)(=O)c1cccc(C(F)(F)F)c1 (centres undefined),-1.6,0.865
Cc1ccc(SC(C)C(=O)NN=C(c2ccccc2)c2ccccc2)cc1 (centres undefined),.,0

# Next section
SMILES,AID504770,Ba CapD inh
N#CC1=C(N)Oc2c(sc3ccccc23)C1c1ccco1 (centres undefined),0.75,.
CCOC(=O)C1CCN(C(=O)c2cc3nc(-c4ccc(OC)c(OC)c4)cc(C(F)(F)F)n3n2)CC1,.,-0.365
Cc1cc(Cl)ccc1Oc1ncccc1N,2.4,-0.085
CN(C)S(=O)(=O)c1ccc(NC(=O)CN(C)S(=O)(=O)c2ccc(Cl)cc2)cc1,-1.25,.
O=C1c2ccccc2NC2(C(=O)Nc3ccccc32)N1C1CCCCC1 (centres undefined),.,2.25
COc1ccccc1N1Cc2ccccc2C1,-0.2,-0.205
Cn1nccc1NC(=O)c1ccc(F)cc1,-0.5,-0.805
CCC(C)(C)c1ccc(S(=O)(=O)NC(C)C(O)c2ccccc2)cc1 (centres undefined),.,-0.335
COc1cccc(CN(Cc2ccc3c(c2)OCO3)S(=O)(=O)c2ccc(-n3cnnn3)cc2)c1,-1.5,.
O=C(NNC(=O)c1ccc(-c2ccccc2)cc1)OCCN1CCN(c2ncc(Cl)cc2C(F)(F)F)CC1,.,2.48
CCC(C)c1cc(N)nc2nc3ccccc3n12 (centres undefined),-0.95,20.1
CC(C)(C)SCC(O)Cn1c2ccc(Cl)cc2c2cc(Cl)ccc21 (centres undefined),-0.4,-0.105
O=C(O)c1cc2ccccc2o1,.,-0.11
Cc1nn(S(=O)(=O)c2ccccc2)c(C)c1Oc1ccc(Cl)cc1,-0.55,0.63
CCCS(=O)(=O)c1c(S(=O)(=O)CCC)c2cnccn2c1C(=O)c1ccc(CC)cc1,.,-0.115
C#CCn1c(C2CCCCC2)nc2ccccc21,1.05,.
Cc1ccc(NC(=S)/N=C(\N)C(C)C)cc1,-0.25,-0.925
Cc1cc(C)n(NC(=S)NC2CC3C=CC2C3)c(=O)c1C#N (centres undefined),1.05,-1.34
CC1CC(C)CN(CCCNC(=O)CCn2cnc3onc(-c4ccc(F)cc4)c3c2=O)C1 (centres undefined),-0.75,-2.22
Cc1cccc(-n2ncc3c(N4CCc5ccccc54)ncnc32)c1,0.25,4.55
COC(=O)c1cnc(N2CCOCC2)nc1C(F)(F)F,-0.55,-0.57
CC(=O)N=c1sccn1CC(O)c1ccccc1 (centres undefined),-0.45,-0.04
CC(C)CCn1c(C(C)O)nc2ccccc21 (centres undefined),-0.6,0.145
N#Cc1c(-c2ccccc2)nc(SCC(=O)Nc2nc3ccc([N+](=O)[O-])cc3s2)[nH]c1=O,.,-0.525
O=c1ccc2cc(S(=O)(=O)Nc3ccc(F)cc3)ccc2o1,-0.6,-0.85
CCCCC1(CN2CCN(Cc3ccccc3)CC2)C(=O)N(c2ccccc2)N(c2ccccc2)C1=O,0.85,-0.175
C(=C\c1ccccc1)/CN1CCN(c2ncnc3c2cnn3-c2ccccc2)CC1,.,0.2
CCN1CCCC1CNCC(O)COc1ccc(C)cc1 (centres undefined),-0.6,.
CCOC(=O)C1=CN(C)C=C(C(=O)OCC)C1c1cccc(OCc2ccccc2)c1,-0.25,4.95
CCOC(=O)C(CC)Sc1nc2c(cnn2-c2ccc(C)c(C)c2)c(=O)[nH]1 (centres undefined),-0.15,-0.84
O=C(Cn1c(C(F)(F)F)nc2ccccc21)NCc1ccccc1Cl,.,0.005
CCCCN(C)C(=O)c1cn(-c2cccc(OC)c2)c(=O)c2ccccc12,-1.15,5.15
O=S1(=O)CC(c2ccccc2)CS(=O)(=O)C1=Cc1ccc(Cl)cc1 (centres undefined),.,0.01
COc1ccc(-n2c(NN)nc3c(c2=O)C2(CCCC2)Cc2ccccc2-3)cc1,0.8,3.44
CCCCN=C(C)C1C(=O)c2ccccc2C1=O,0.85,-0.275
CC(C)(C)C(=O)COC(=O)c1cccnc1SCC(=O)Nc1ccc2c(c1)OCO2,0.9,.
CCOC(=O)c1c(NC(=O)c2ccc([N+](=O)[O-])cc2)sc(C(=O)Nc2cccc(Cl)c2C)c1C,.,-0.36
CC(C)N(C(C)C)C1N=C(c2ccccc2)c2cc(Cl)ccc2N(C)C1=O (centres undefined),1.35,-0.96
Cc1cccc(C)c1NC(=O)CN(C)C(C)C(=O)Nc1ccc(S(N)(=O)=O)cc1 (centres undefined),-0.1,.
CCSc1nnc2c(n1)OC(c1ccc(OC)c(Br)c1)Nc1ccccc1-2 (centres undefined),.,-0.24
O=C(Nc1nc2ccc(Cl)cc2s1)c1cccc(Cn2cc(Cl)cn2)c1,1.15,-0.03
Cc1noc(C)c1COC(=O)c1cc(S(=O)(=O)NC(C)C)ccc1Br,1.95,.
COc1cc(S(=O)(=O)N2CCN(C)CC2)c(C)cc1C,-0.45,.
CCCCCC(=O)Nc1nc2c(s1)CCc1cc(OC)ccc1-2,.,6.11
O=C(OCCN1CCN(Cc2ccccc2OCc2ccccc2)CC1)N1CC=C(n2c(=O)[nH]c3ccccc32)CC1,.,-0.035
O=C(NC1CCCCCC1)C1CCCO1 (centres undefined),0.8,.
CC(C)(C)C(=O)CSc1nnc(-c2cc(OCC(F)(F)F)ccc2OCC(F)(F)F)o1,-0.15,19.8
CC1CC1C(=O)OCC(=O)Nc1ccc(C(N)=O)cc1 (centres undefined),-1.1,-1.33
NC(=O)C1CCN(C(=S)Nc2ccccc2)CC1,1.45,-0.34
CC1=C(C(=O)OCc2ccccc2)C(c2cccc(O)c2)C2=C(CC(c3ccccc3)CC2=O)N1 (centres undefined),0.75,0.015
O=C(CSc1nnc2sc3ccccc3n12)Nc1ccc(Cl)c(C(F)(F)F)c1,.,-0.09
CCOC(=O)C1=CN(Cc2ccc(Cl)cc2)C=C(C(=O)OCC)C1c1ccc(OCC)c(OC)c1,.,58.5
CC1CCCCN1S(=O)(=O)c1ccc(N2CCCCS2(=O)=O)cc1 (centres undefined),-0.65,-0.76
Cc1ccc2nc(N3CCN(C(=O)CC4(CC(=O)O)CCCC4)CC3)nc(-c3ccccc3)c2c1,.,-1.28
Nc1ccccc1N=c1cc(-c2ccc3c(c2)OCO3)oc2ccccc12,0.25,1.66
COc1ccc(C(=O)C[n+]2cc(-c3ccccc3)n3c2CCCCC3)cc1OC,.,-1.21
O=C(Cn1cnc2sccc2c1=O)N1CCCC1c1ccc2c(c1)OCCCO2 (centres undefined),0.15,.
COC(C(=O)N1CCCC1c1nnc(SCc2ccccc2)n1C)c1ccccc1 (centres undefined),-0.35,.
CC(=O)NC(NCC12CC3CC(CC(C3)C1)C2)(C(F)(F)F)C(F)(F)F,0.9,-0.665
COc1cc(CNc2ccccc2SC)ccc1O,0,6.97
# Further entries
SMILES,AID504770,Ba CapD inh
O=C(Nc1nnc(COc2ccc(Cl)cc2)s1)C1CCCCC1,1.2,-0.07
O=C(COC(=O)COc1cccc(Br)c1)Nc1c(Cl)cccc1Cl,1.7,-0.835
Cc1noc(C)c1CSCC(=O)NC1=NCCS1,-0.25,.
COc1ccc(CCNC(=S)NC2CC2)cc1OC,-0.5,0.38
CN=C(Nc1cc(C)nn1-c1ccccc1)c1ccccc1F,-0.75,-0.045
COC(=O)CSC1=C(C#N)C(=O)NC(c2ccccc2O)S1 (centres undefined),-1.75,0.56
COC(=O)NC(Nc1sc2c(c1C(N)=O)CCC2)(C(F)(F)F)C(F)(F)F,0.4,0.155
O=c1c2ccccc2c(=O)n2n1CC=CC2,1.9,0.065
CCOc1cc(C2Nc3ccc4ccccc4c3C3=C2C(=O)CC(C)(C)C3)ccc1OC (centres undefined),.,3.53
CC1=C(C(=O)Nc2ccccc2)C(c2ccco2)C(C#N)=C(SCC(=O)Nc2ccc(C)c(Cl)c2)N1 (centres undefined),.,1.34
COc1ccc(CN)cc1OC,-0.3,.
CCC(=O)N1CC(C)C(=O)N(Cc2ccccc2)c2ccccc21 (centres undefined),.,-0.375

# Only part of the results is shown; the hit share may differ from the screen's.
